AF4-AF9 inh = blocks AF4 peptide binding to human AF9 | P42568 | AlphaScreen, biotin-AF4 peptide binding to FLAG-AF9 | inhibition, % at 10 µM | 350,000 compounds, 0.47% hits | AID 651704;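 active = every replicate reaching a set inhibition limit, whatever the replicate mean, cut at about 25% in these data; inconclusive = mean inhibition reaches that limit but some replicates miss it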;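 note: 0% = plate neutral control median and 100% = total signal loss; the record names both 10 and 1 µM as test concentration; the first replicate is given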
FGF22 binding = FGF22 (human) thermal shift binding | Q9HCT0 | recombinant FGF22 thermal shift, SYPRO orange fluorescence; percent of sucrose octasulfate shift, DMSO zero | calls only at 9.99 µM | 340,000 compounds, 1.5% hits | AID 651658;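 active = melting point raised past a set limit in the mean and every replicate; inconclusive = no clear call; three in four hits are not shown here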
Target sequence (Q9HCT0 whole entry, looked up): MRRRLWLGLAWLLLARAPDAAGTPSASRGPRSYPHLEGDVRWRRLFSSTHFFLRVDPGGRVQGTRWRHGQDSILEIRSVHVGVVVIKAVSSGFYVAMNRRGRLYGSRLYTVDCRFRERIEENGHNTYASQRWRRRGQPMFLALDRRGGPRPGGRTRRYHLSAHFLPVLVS
Ecoli growth = E. coli growth inhibition | Escherichia coli growth, OD600, 23 h; active compounds read low | OD600 absorbance (no concentration beside the values) | 330,000 compounds, 0.21% hits;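 active = OD600 absorbance below the run mean of sample wells minus 3.6 SD, in any replicate, cut at about 0.56 in these data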;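 note: stock transfer was 300 nL into about 60 µL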
Vif A3G = HIV-1 Vif–A3G interaction blockers – biochemical, TR-FRET, GST-Vif 1-94, biotin-A3G peptide, dose response retest, primary screen (AID 1117319) | TR-FRET GST-Vif / biotin-A3G peptide binding; higher % means a stronger effect; test concentration not given here; strong numbers were not always called active | inhibition, %; hits with a dose series show IC50 in µM | 260,000 compounds, 0.57% hits;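 active = above the screen mean plus three standard deviations and confirmed in dose response; inconclusive = results disagree or hit not tested in dose response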;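 note: Vif residues 1-94 fused to GST binding biotinylated APOBEC3G peptide 110-148; 0% = full assay without inhibitor and 100% = GST in place of GST-Vif; retest series ran down from 100 µM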
RanGTP-Imp inh = disruptors of Ran-importin-beta complex formation – biochemical, FRET, CFP-Ran, YFP-importin-beta, homogeneous, primary screen; cell-free CFP-Ran/YFP-importin-beta FRET ratio; inhibition, % (concentration not given with the values); 300,000 compounds, 1.1% hits;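 active = most replicates above 15%; inconclusive = exactly half above 15%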;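 note: 0% = DMSO wells and 100% = Ran loaded with GDP instead of GTP; wells of about 40 µL received 100 nL stock; the first replicate is given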
UCH37 DUB inh = human UCH37 deubiquitinating enzyme inhibition; purified proteasome/UCH37, Ub-AMC cleavage fluorescence; inhibition, % (test concentration not listed); 330,000 compounds, 0.33% hits; AID 588478;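 active = mean of two replicates above 20%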;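 note: 0% = compound-free wells with enzyme and 100% = wells lacking proteasome; stock transfer was 100 nL into about 20 µL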
Target sequence (Q9Y5K5 whole entry, looked up): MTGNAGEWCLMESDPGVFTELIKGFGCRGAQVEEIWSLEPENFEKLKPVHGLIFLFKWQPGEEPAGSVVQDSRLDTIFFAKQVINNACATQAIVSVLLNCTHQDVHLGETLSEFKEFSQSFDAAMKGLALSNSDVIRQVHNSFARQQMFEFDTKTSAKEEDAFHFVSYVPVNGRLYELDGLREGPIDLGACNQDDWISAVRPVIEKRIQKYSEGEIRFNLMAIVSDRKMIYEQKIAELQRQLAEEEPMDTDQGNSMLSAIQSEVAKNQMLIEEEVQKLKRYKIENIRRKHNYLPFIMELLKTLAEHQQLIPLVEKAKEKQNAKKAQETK
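Test system – human UCH37 enzyme supplied as purified proteasome complex · Incubation – 30 min preincubation with enzyme, 25 min cleavage at room temperature · Detection – AMC fluorescence from Ub-AMC cleavage, excitation 355 nm, emission 460 nm · Benchmarks – no-proteasome wells (full inhibition) and compound-free wells (no inhibition)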
HNF4A DNA FP = change in binding of human HNF4 alpha to DNA. P41235. HNF4a-FITC DNA binding, fluorescence polarization, 1 h. activity change, % at 10 µM. 360,000 compounds, 0.3% hits; in the data active = activity change above about 30%, passing the limit was not always enough;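 note: controls were the assay level and a saturating level of protein; the project sought stronger binding though the title names inhibitors; some compounds called inactive have numbers as strong as hits; positive values seem to mean higher polarization but the record does not say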
Target sequence (P41235 whole entry, looked up): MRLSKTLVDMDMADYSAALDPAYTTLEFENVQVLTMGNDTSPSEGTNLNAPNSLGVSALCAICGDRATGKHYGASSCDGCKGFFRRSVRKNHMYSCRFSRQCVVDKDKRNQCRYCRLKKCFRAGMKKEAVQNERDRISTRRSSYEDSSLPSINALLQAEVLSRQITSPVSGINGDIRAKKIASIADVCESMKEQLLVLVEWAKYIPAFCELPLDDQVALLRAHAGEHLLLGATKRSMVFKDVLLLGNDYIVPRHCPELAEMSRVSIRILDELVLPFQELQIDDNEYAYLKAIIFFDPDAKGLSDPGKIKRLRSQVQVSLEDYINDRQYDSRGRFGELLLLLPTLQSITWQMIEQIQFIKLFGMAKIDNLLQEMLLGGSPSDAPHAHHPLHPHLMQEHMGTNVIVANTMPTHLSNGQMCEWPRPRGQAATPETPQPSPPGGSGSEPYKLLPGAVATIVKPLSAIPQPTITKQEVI
* marks the source's active call; other numbers are inactive results; i = inactive; ? = inconclusive; . = not tested or not shown; & = joins results of further samples. Some of the compounds tested, so the mix of outcomes need not match the whole.

SMILES | AF4-AF9 inh | FGF22 binding | Ecoli growth | Vif A3G | RanGTP-Imp inh | UCH37 DUB inh | HNF4A DNA FP
O=C(CCN1C(=O)c2ccccc2C1=O)C1=NN[C@@H]2C(=O)N(c3cccc(Cl)c3)C(=O)[C@H]12 | 1.4 | i | 0.666 | . | -1.3 | 3.1 | -1.4
COc1cccc(OC)c1OC(=O)c1ccccc1 | -0.9 | i | . | -12.2% | . | . | -1.1
Cc1c(Cl)c(C(=O)Nc2nc3ccccc3n2CCN2CCCCC2)nn1C | . | . | 0.745 | 5.3% | -0.5 | 4.0 | .
CC(=O)Nc1ccc(NC(=O)Oc2ccccc2)cc1 | 5.9 | i | 0.654 | -1.9% | -0.3 | 2.4 | -3.2
Clc1nccnc1-c1ccccc1 | . | . | 0.663 | -0.1% | 0.3 | 0.7 | 0.2
Cn1c(SCC(=O)Nc2ccccc2)nnc1C(F)(F)F | -2.1 | i | 0.718 | -7.9% | 1.3 | -0.1 | 1.0
Cc1cc(C)c(S(=O)(=O)N2CCOC2CNC(=O)C(=O)NCc2ccco2)c(C)c1 (stereo not drawn) | 1.4 | i | 0.796 | 1.7% | 5.8 | 1.2 | 0.6
COc1ccc(NC(=O)CCCN2C(=O)C3C4C=CC(C4)C3C2=O)c(OC)c1 (stereo not drawn) | . | . | 0.724 | 5.7% | -0.4 | 0.7 | 0.2
O=C(Cc1c(Cl)cccc1Cl)Nc1ccncc1Cl | -0.4 | i | 0.711 | -1.9% | 2.1 | 2.5 | 3.9
Cc1ccc(NC(=O)N2CCN(c3ccccn3)CC2)cc1 | 7.1 | i | 0.598 | 1.2% | 0.1 | 1.1 | 0.9
COc1cccc(C=C(C(C)=O)C(=O)c2ccccc2)c1 | 3.5 | i | . | . | . | . | 2.0
Cc1cc(C)n2nc(CNS(=O)(=O)c3c(F)c(F)c(F)c(F)c3F)nc2n1 | -1.3 | i | 0.688 | . | 0.1 | -0.3 | 2.8
O=C(NCc1ccccc1Cl)C(=O)NCC1OCCCN1S(=O)(=O)c1cccs1 (stereo not drawn) | 0.5 | i | 0.681 | . | 4.3 | 0.8 | 3.5
COc1ccc(/C=C/C(=O)NCC(=O)N/N=C/c2cc(Br)ccc2OC)cc1 | . | . | . | -5.5% | -4.5 | . | -2.1
O=C(/C=C\c1ccccc1)Nc1nccs1 | . | . | 0.719 | 23.1% | -2.1 | -19.1 | -0.5
CCC(=O)Oc1c(C(=O)CC)cc2c(C)cc(=O)oc2c1C | . | . | 0.7 | 13.2% | 3.8 | -309.3 | 0.1
NC(=O)C1CCN(C(=O)c2ccc3c(c2)S(=O)(=O)c2ccccc2C3=O)CC1 | 0.9 | i | 0.696 | . | 1.6 | 6.0 | -3.0
O=C(Nc1ccc(Nc2ccccc2)cc1)c1ccc(Cl)cc1[N+](=O)[O-] | . | i | 0.625 | . | -2.7 | 5.7 | 2.6
CC(=O)Nc1ccc(NC(=O)/C(Cl)=C/c2ccccc2)cc1 | . | . | 0.747 | -3.0% | 6.4 | 7.7 | -0.9
CCCC[C@@H]1C=C(C(=O)O)[C@H](c2ccc(Br)cc2)N1S(=O)(=O)c1ccc(C)cc1 | -2.5 | i | 0.678 | 9.2% | . | 1.7 | 1.7
O=C(Nc1ccc(F)cc1)OCCN1CCN(Cc2ccccc2)CCC1=O | 1.4 | i | 0.643 | 20.2% | 2.2 | 2.8 | -2.6
COc1cc(NC(=O)c2cccnc2)ccc1-c1cc2ccccc2oc1=O | 0.3 | i | 0.625 | ? | 2.8 | -26.7 | .
Cc1ccc(-c2cc(C(=O)N3CC4(C)CC3CC(C)(C)C4)no2)cc1 (stereo not drawn) | -1.0 | i | 0.707 | 2.4% | -0.8 | 5.4 | 3.2
CC1CC(C)CN(S(=O)(=O)c2ccc(C(=O)NN3CCOCC3)cc2)C1 (stereo not drawn) | 0.6 | i | 0.737 | -11.5% | 1.5 | 3.9 | 3.7
Cc1ccccc1-c1csc(N)n1 | -1.6 | i | 0.67 | -8.0% | . | 2.5 | 1.0
SMILES | AF4-AF9 inh | FGF22 binding | Ecoli growth | Vif A3G | RanGTP-Imp inh | UCH37 DUB inh | HNF4A DNA FP
CN(C)c1ccnc(-n2cccc2/C=N/OCc2ccc(F)cc2Cl)c1C#N | . | . | . | -5.0% | 1.0 | . | -1.6
Cc1ccc(C)c(NC(=S)NC(NC(=O)Cc2cccc3ccccc23)C(Cl)(Cl)Cl)c1 (stereo not drawn) | . | . | 0.665 | 10.4% | -1.2 | 4.1 | -3.2
CCOc1ccc(S(=O)(=O)NCc2csc(C)n2)cc1 | . | . | 0.7 | -2.9% | 2.2 | 3.8 | 1.9
CC1CCCCC12NC(=O)N(CC(=O)NC(=O)Nc1ccc3c(c1)OCCO3)C2=O (stereo not drawn) | . | . | 0.719 | 3.9% | 3.3 | 5.9 | 1.1
O=C(Cc1ccc(Cl)cc1)NC1CCCN(Cc2ccccc2F)C1 (stereo not drawn) | -5.5 | i | 0.708 | . | 0.3 | -1.0 | 2.9
Cc1cccc(/N=C/c2c(O)ccc3oc4c(c23)CCCC4)n1 | . | . | . | -1.7% | -0.3 | . | 0.2
O=C(COc1ccc2c3c(c(=O)oc2c1)CCC3)NC1CCCCC1 | 5.9 | i | 0.684 | -8.2% | 9.1 | -26.8 | -5.0
O=C(Cc1ccccc1)NC1CCN(S(=O)(=O)c2cccc(F)c2)CC1 | . | . | 0.673 | 0.2% | 0.4 | 0.2 | -0.6
CC1=Nc2ccccc2N=C(NC(=O)CSc2nnnn2-c2ccccc2)C1c1ccccc1 (stereo not drawn) | . | . | 0.725 | -7.5% | -0.3 | 3.7 | 0.9
N/C(=N\OC(=O)c1cccs1)c1ccc(Cl)cc1 | . | i | 0.63 | 6.0% | -0.8 | 2.9 | 9.9
CC(NCC(=O)Nc1ccccc1C(=O)NC1CC1)c1ccccc1Cl (stereo not drawn) | -0.3 | i | 0.707 | -4.5% | . | 1.9 | 0.8
COc1ccc(S(=O)(=O)NC(C)CCc2ccccc2)cc1 (stereo not drawn) | -2.0 | i | 0.683 | -10.1% | 0.6 | 3.4 | -3.4
CN(C(=O)CCc1ccccc1)c1nnc(-c2ccncc2)s1 | -1.4 | i | 0.705 | 9.1% | -1.1 | -1.0 | -0.3
Cc1oc(-c2ccccc2F)nc1CS(=O)CC(=O)NC1CCCC1 (stereo not drawn) | 0.3 | i | 0.673 | -4.2% | 1.8 | -1.4 | -1.8
O=C(CCl)N1N=C(c2ccco2)CC1c1cccs1 (stereo not drawn) | . | . | 0.673 | . | 0.8 | 3.1 | 3.6
C#CCOCCOCCOCCNc1nc(N2CCN(C(=O)[C@H](CCC(=O)O)n3cc(C(N)CC(C)C)nn3)CC2)nc(N2CCN(C(=O)[C@H](Cc3ccc(O)cc3)n3cc(C(N)[C@H](C)CC)nn3)CC2)n1 (stereo partly drawn) | . | . | . | -1.2% | 10.0 | 3.9 | .
CCSc1nc2sc3c(c2c(=O)[nH]1)CCc1ccccc1-3 | 0.1 | i | 0.68 | ? | 3.0 | -3.2 | 0.3
COc1ccc(NC(=O)C/C(C)=N/NC(=O)C(=O)Nc2cccc(Cl)c2C)c(OC)c1 | -1.5 | i | . | -4.4% | 1.1 | . | -0.3
C[C@@H]1C=C(C(=O)N2CCN(C)CC2)O[C@H](OCc2ccc(CO)cc2)C1 | -0.8&0.5 | i | . | 23.4% | 9.2 | -0.7 | 0.2
COc1cccc(N2CCN(S(=O)(=O)c3ccc(-c4coc(C)n4)cc3)CC2)c1 | 1.8 | i | 0.757 | 0.6% | 3.6 | 1.6 | 3.3
Cc1nc([N+](=O)[O-])c(NCCO)n1Cc1ccccc1 | -2.6 | . | 0.692 | -5.3% | 1.5 | 7.6 | 3.0
O=c1c2ccccc2n2c(=S)[nH]nc2n1-c1ccccc1 | -1.6 | i | 0.695 | . | 3.8 | 3.0 | 3.2
Cn1c(SCC(=O)O)nnc1-c1ccc2ncccc2c1 | 0.7 | i | 0.697 | -10.2% | -0.6 | 2.2 | .
COC(=O)C1=C(C)N(Cc2ccccc2)C(=O)N[C@H]1c1cccc(F)c1 | -2.0 | i | . | . | 0.3 | 0.0 | 0.3
O=[N+]([O-])c1ccc(N/N=C2\CC3CC=CC23)c([N+](=O)[O-])c1 (stereo not drawn) | 17.7 | . | . | 17.6% | -3.7 | . | -0.9
SMILES | AF4-AF9 inh | FGF22 binding | Ecoli growth | Vif A3G | RanGTP-Imp inh | UCH37 DUB inh | HNF4A DNA FP
Cn1cc(C(=O)NCCc2ccccc2)c(=O)c2cc(S(=O)(=O)N3CCOCC3)ccc21 | 1.6 | i | 0.727 | . | . | -0.9 | 2.3
COC(=O)C1=C(N)Oc2cc(C)n(CC3CCCO3)c(=O)c2C1c1ccccc1OC (stereo not drawn) | . | . | 0.753 | 30.3% | 4.8 | 0.6 | -1.9
CCS(=O)(=O)NCC(c1cccnc1)N1CCN(c2ccccc2)CC1 (stereo not drawn) | 5.3 | i | 0.757 | -3.0% | -1.4 | 2.3 | 1.6
C[C@@H]1CN([C@H](C)CO)S(=O)(=O)c2ccc(C#Cc3ccccc3)cc2O[C@@H]1CN(C)C(=O)CN(C)C | 20.3&20.9&22.9 | i | . | -4.6% | . | . | -1.8
COc1ccc(-c2nc(N)sc2C2(O)C(=O)Nc3c(Br)cc(F)cc32)cc1OC (stereo not drawn) | -15.5 | i | 0.623 | . | 4.7 | -0.2 | 2.9
O=C(NC(=S)Nc1ccccc1N1CCOCC1)c1ccc([N+](=O)[O-])cc1 | . | . | 0.741 | 0.5% | 3.1 | 1.4 | 4.4
Cc1cccc(C)c1NC(=O)c1c(C)nn(-c2ccccc2)c1Cl | . | . | 0.709 | -8.6% | -1.4 | 1.0 | 4.2
Nc1nonc1-n1nnc(C(=O)N/N=C/c2cccc(F)c2)c1CN1CCCC1 | -1.0 | i | . | 7.2% | 3.2 | . | 2.6
O=C(OCC(=O)N1CCN(C(=O)c2ccco2)CC1)c1cccc(O)c1 | 0.3 | i | 0.675 | . | 3.9 | 0.8 | -3.1
CC(=O)C1=C(c2ccccc2)NC(=O)NC1c1ccc(O)c(Cl)c1 (stereo not drawn) | 0.3 | i | 0.655 | . | -0.7 | 3.7 | 2.7
CC(C)N(Cc1c(O)ccc2c(=O)c(-c3ccc(Cl)cc3)coc12)C(C)C | 0.0 | i | 0.637 | 1.2% | -2.6 | -259.4 | 1.9
CCOC(=O)C1=C(C)N=C2SC(C)C(=O)N2C1/C=C/c1ccccc1OC (stereo not drawn) | . | . | 0.707 | 0.0% | -2.7 | 3.2 | -0.4
O=C(COc1ccc(Cl)cc1Cl)Nc1ccc(S(=O)(=O)NC2=NCCCCC2)cc1 | . | . | 0.691 | -1.4% | -2.8 | 5.0 | 1.6
O=C(NCCCN1CCN(CCCNC(=O)c2ccc(F)cc2)CC1)c1ccc(F)cc1 | . | . | 0.686 | ? | -3.5 | 2.9 | -3.4
COc1ccc(CN2C(=O)NC(C)(c3ccc(C)cc3)C2=O)cc1F (stereo not drawn) | -7.5 | i | 0.701 | -1.6% | 7.3 | 0.3 | 16.8

4 compounds from above, showing only UCH37 DUB inh and AF4-AF9 inh.
SMILES	UCH37 DUB inh	AF4-AF9 inh
Cn1cc(C(=O)NCCc2ccccc2)c(=O)c2cc(S(=O)(=O)N3CCOCC3)ccc21	-0.9	1.6
CCS(=O)(=O)NCC(c1cccnc1)N1CCN(c2ccccc2)CC1 (stereo not drawn)	2.3	5.3
O=C(OCC(=O)N1CCN(C(=O)c2ccco2)CC1)c1cccc(O)c1	0.8	0.3
O=C(NCCCN1CCN(CCCNC(=O)c2ccc(F)cc2)CC1)c1ccc(F)cc1	2.9	.

Screening data from PubChem.
